# PrP 5UTR inh: inhibition of PrP 5' UTR reporter expression | cell-based PrP 5' UTR mRNA reporter, plate reader | inhibition, % (test concentration not listed) | 0.35% of 340,000 active | AID 488862;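 active = every replicate at 50% or more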;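 note: 0 = median of the neutral control wells; tested in H4 reporter cells; numbers are from one replicate; inactives centre near -14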
# Sa ugtP lethal: growth inhibition of S. aureus ugtP deletion strain | S. aureus RN4220 ugtP deletion, OD600 growth, 16 h; some inactives read as strong as hits | 0.54% of 330,000 active | growth inhibition, % (no concentration beside the values);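 active = z-score under -3 and OD600 up to 0.15 on both plates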;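 note: plate controls were untreated wells for no effect and antibiotic for full effect; wells of about 80 µL received 100 nL stock; the first replicate is given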
# BJeLR lethal: BJeLR cell viability loss; BJeLR (HRASV12) viability, CellTiter-Glo ATP luminescence, 48 h; reference of the scale not given here; inhibition, % (test concentration not listed); 0.17% of 300,000 active; AID 1554;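 active = replicate mean above 50%; inconclusive = above 50% but judged a plate artefact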;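 note: 50 nL library stock added to about 25 µL; numbers are from one replicate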
# Mtb hypoxia inh: Mtb hypoxia fluorescent reporter inhibition | M. tuberculosis hypoxia-regulated fluorescent reporter, fluorescence | fluorescence inhibition, % (test concentration not listed) | 0.1% of 300,000 active | AID 1159583;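 active = 35 to 45% if threefold the growth effect, above 45% if 1.5-fold the growth effect; inactive = the rest, general growth blockers included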;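 note: wells of about 50 µL received 100 nL stock; 0% = vehicle wells and 100% = reference inhibitor wells; whole bacteria with a GFP reporter of the hypoxia response; strong numbers were not always called active; many hits fall short of the cut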
# Sa RN4220 lethal: S. aureus RN4220 growth inhibition. OD600, 16 h. inhibition, % (concentration not given with the values). 0.33% of 330,000 active. AID 1259311;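 active = z-score of -3 or lower and OD600 up to 0.18 on both plates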;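 note: plate controls were untreated cells for no effect and reference antibiotic for full effect; stock transfer was 100 nL into about 80 µL; one replicate is shown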
# Autofluor counter: flagged as autofluorescent in microsphere protease counterscreen; compound autofluorescence counterscreen, microsphere flow cytometry; active compounds read high; fluorescence intensity (concentration not given with the values); 3.1% of 360,000 active;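 active = at least 3 SD above the mean of all compounds, about 16000 in these data; inconclusive = too few beads counted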;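 note: 100 nL of 1 mM stock went into each well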
# Mtb hypoxia inh growth: also measured in Mtb hypoxia inh; calls as there; growth inhibition, %; measured here: M. tuberculosis growth (absorbance);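 0% = vehicle and 100% = reference antibiotic; read after six days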
# The depositor's hits bear a star; u = inconclusive; x = not tested or not shown.
# Values run as follows: PrP 5UTR inh	Sa ugtP lethal	BJeLR lethal	Mtb hypoxia inh	Mtb hypoxia inh growth	Sa RN4220 lethal	Autofluor counter
- O=C(NC(Cc1ccccc1)C(=O)O)/C(=C/c1ccc([N+](=O)[O-])cc1)NC(=O)c1ccc(Br)o1 (configuration not stated)
    -1	2	-3	-9	-10	2.7	4033
- O=C(/C=C/c1ccco1)NCC(=O)NN=Cc1ccc(Cl)cc1
    x	-1	x	6	4	-0.2	x
- O=C(NC1CC1)c1ccc2c(c1)C1C3CCC(C3)C1C(c1ccccc1)N2 (configuration not stated)
    5	-1	-10	5	0	4.0	2322
- COc1ccc(-c2c[n+](CC(=O)OC3CC(C)CCC3C(C)C)c3n2CCC3)cc1 (configuration not stated)
    1	100*	19	x	x	100*	4869
- COc1ccc(C2=C(c3ccc(OC)c(OC)c3)CN3CCCCC3C2)cc1 (configuration not stated)
    1	9	x	0	-4	0.0	4148
- Cn1nc(C(F)(F)F)c(C=NOC(=O)c2ccccc2Cl)c1SCc1ccccc1Cl
    x	12	x	9	2	1.7	x
- Cc1nnc(SCCn2c(N3CC(C)CC(C)C3)nc3c2c(=O)[nH]c(=O)n3C)s1 (configuration not stated)
    -19	0	8	-2	13	4.3	23049*
- O=C(c1ccco1)N1CCN(C(=O)N2CCCCC2)CC1
    1	-4	0	10	6	4.8	2497
- COc1ccc(-c2nn(-c3ccccc3)cc2/C=C(\C#N)S(=O)(=O)c2ccccc2)cc1OC
    0	15	-2	-9	1	4.4	1938
- CCN1C(=O)/C(=C/N2CCc3ccccc3C2)SC1=S
    -56	-3	-5	6	2	3.0	16177*
- COc1ccc(-c2nc(CN3CCC(C(=O)N4CCOCC4)CC3)c(C)o2)cc1C
    47	7	-3	8	5	1.5	6055
- CCN(CC(=O)Nc1ccc(Br)c(C)c1)CC(=O)NC(C)C
    -13	7	-18	9	-3	2.6	3392
- CCOC(=O)C1CCN(C(=O)N(C)C)CC1
    -6	-1	-4	-5	9	0.9	23160*
- O=C(Nc1cccc2ccccc12)OCc1ccccc1
    -33	-5	x	14	8	-2.9	3565
- COc1ccc(C=NNC(=O)c2cccc(OC(F)(F)C(F)F)c2)cc1O
    x	5	x	-4	3	-2.2	x
- COc1ccc(CCC(C)Nc2ccccc2F)cc1 (configuration not stated)
    -7	41	-2	15	10	2.0	2511
- CC(=O)Nc1ccc(NC(=O)C2CCC(N3C(=O)C4C5C=CC(C6CC56)C4C3=O)CC2)cc1 (configuration not stated)
    -8	2	2	7	-8	5.6	5122
- O=C(O/C(=C/c1ccccc1)C(F)(F)F)c1ccccc1
    -22	10	x	19	8	-1.1	3436
- CC12CCC(C(=O)Nc3cccc4ccccc34)(C1Br)C2(C)C (configuration not stated)
    -20	-17	-3	1	0	9.5	3218
- O=C(COC(=O)C1(c2ccccc2)CCCC1)N1CCNC1=O
    -11	-5	x	4	1	3.2	2998
- CCCNC(=O)c1nn2c(C(F)(F)F)cc(-c3ccccc3)nc2c1Br
    -6	6	-3	20	2	11	3044
- COc1cccc(-n2c(Cn3nc(C(F)F)cc3C(F)F)n[nH]c2=S)c1
    -102	2	-4	-12	-12	4.5	2420
- Cc1cccc(NC(=O)c2cnn(-c3ccccc3)c2C)c1C
    -33	3	19	18	7	2.9	3087
- CCOc1ccc(N(CC(=O)NCCSCc2ccccc2)S(C)(=O)=O)cc1
    -22	13	-9	3	-2	4.4	4163
- Cc1cc(/C=N/NC(=O)c2ccc(O)cc2)c(C)n1C1CC1
    -3	x	-5	x	x	x	3115
- O=C(NNC(=O)c1ccccc1O)c1ccc(Cl)c(S(=O)(=O)N2CCCCC2)c1
    0	20	-4	8	6	12	u
- Nc1ccc(Oc2ccccc2-c2ccccc2)cc1
    43	9	2	5	1	4.8	x
- CC(=O)c1ccc(OC(=O)N2CCOCC2)cc1
    -19	2	7	4	6	1.8	3965
- COc1cc(CN2CCC(CCC(=O)NC3CC3)CC2)cc(Cl)c1OC
    -31	18	0	4	-1	3.0	3910
- CCC[C@H]1CC(=O)C=C(c2ccc(OC)cc2)ON1C(=O)OC(C)(C)C
    -11	2	x	-2	-3	1.7	3747

# Structural class: the compounds so far with an aryl thioether with sulfur outside any ring.
# Values run as follows: PrP 5UTR inh	Sa ugtP lethal	BJeLR lethal	Mtb hypoxia inh	Mtb hypoxia inh growth	Sa RN4220 lethal	Autofluor counter
- Cn1nc(C(F)(F)F)c(C=NOC(=O)c2ccccc2Cl)c1SCc1ccccc1Cl
    x	12	x	9	2	1.7	x
- Cc1nnc(SCCn2c(N3CC(C)CC(C)C3)nc3c2c(=O)[nH]c(=O)n3C)s1 (configuration not stated)
    -19	0	8	-2	13	4.3	23049*

# Going on with the list:
# Values run as follows: PrP 5UTR inh	Sa ugtP lethal	BJeLR lethal	Mtb hypoxia inh	Mtb hypoxia inh growth	Sa RN4220 lethal	Autofluor counter
- C=CCn1cc([N+](=O)[O-])nc1C
    -15	1	5	11	5	2.0	2068
- O=C(Nc1ccccc1Oc1cccnc1)C1CCCN(C/C=C/c2ccc(F)cc2)C1 (configuration not stated)
    -16	-4	1	-6	1	-5.4	6329
- CN1C(=O)SC(Nc2ccc(F)cc2)C1=O (configuration not stated)
    -12	-3	-5	9	11	0.4	3763
- Cc1cc(C(=O)CCl)c(C)n1-c1cccc(S(=O)(=O)N2CCOCC2)c1
    x	20	-16	22	18	28	x
- CCCNS(=O)(=O)c1ccc(CCC(=O)N2CCCC2)cc1
    4	4	1	1	-1	2.3	3660
- O=C(c1ccc2c(c1)OCO2)C1CCCN(Cc2cccn2-c2cccnc2)C1 (configuration not stated)
    -4	1	-11	4	-6	-1.8	3251
- CCCCn1c(N)c(N(CCC(C)C)C(=O)CSc2nnc3ccccn23)c(=O)[nH]c1=O
    -6	6	-1	13	10	2.7	2104
- COc1cc(C2Nc3cc(Cl)c(S(N)(=O)=O)cc3S(=O)(=O)N2)ccc1OCc1ccccc1 (configuration not stated)
    -53	2	9	6	9	5.6	4227
- CC(=NNC(=O)c1nn(C)c(C)c1Br)c1ccc(NC(=O)C2CCCC2)cc1
    x	4	x	12	0	1.6	x
- O=C(c1ccco1)n1nc(-c2ccccc2)nc1NCc1ccco1
    -18	0	-3	4	-1	4.0	4333
- CC(C)[C@H](NC(=O)[C@@H]1Cc2ccccc2CN1C(=O)OC(C)(C)C)C(=O)NCc1ccco1
    -11	2	-3	-2	4	1.1	5222
- CCOc1ccc(/C=C2\SC(=S)N(CCC(=O)Nc3cccc(C(=O)O)c3)C2=O)cc1
    -28	6	-3	16	8	15	4222
- NC(=O)c1ccccc1NC(=O)CN1CCN(Cc2ccccc2)CC1
    -5	-7	0	2	-4	0.8	3423
- O=C(NC1CC1)C1CCC(=O)N1C1CCCC1 (configuration not stated)
    -13	-6	5	3	3	2.1	4168
- Cc1cccc(NC(=S)NCc2ccccc2)c1C
    -12	0	-8	-6	0	-1.2	2865
- Cc1cccn2c(=O)c(C=O)c(Sc3ncccn3)nc12
    -20	2	9	7	5	0.9	4521
- COc1ccc(C(CNC(=O)c2ccc(C)c(S(=O)(=O)N3CCCCC3)c2)N(C)C)cc1OC (configuration not stated)
    -7	4	3	0	8	2.3	4047
- Nc1nc(SCC(=O)c2c(N)n(Cc3ccccc3)c(=O)[nH]c2=O)n[nH]1
    -22	4	-1	7	7	3.0	4250
- O=C(CSc1nnc(-c2ccncc2)o1)N1CCc2ccccc2C1
    -18	1	3	7	13	-16	4157
- CCOC(=O)Nc1ccc(NC(=O)c2ccccc2F)cc1
    -64	-2	8	-4	-6	-1.4	2128
- CCN(CCNC(=O)C1CCN(S(=O)(=O)CC)CC1)c1ccccc1
    -24	2	4	14	6	6.2	9581
- CC12C(=O)N(c3cccc4cccnc34)C(=O)C1C1C=CC2C1 (configuration not stated)
    -36	7	-3	x	x	-3.3	6555
- Cc1cc(C)nc(NC2=NCC(=O)N2c2ccc(Cl)cc2)n1
    -5	5	x	-3	-1	16	3050
- COc1cccc2cc(C(=O)C3=C(O)C(=O)N(CCN(C)C)C3c3ccc(Cl)cc3)oc12 (configuration not stated)
    -36	1	2	13	11	2.6	3918
- COc1ccc2c(/C=C/c3cc[n+](C)cc3)c[nH]c2c1
    -2	-7	9	21	10	-3.2	3422
- Cc1cc(C(=O)NN=Cc2ccc(-c3cccc([N+](=O)[O-])c3)o2)n[nH]1
    x	5	x	2	2	2.8	x
- CCCC(=O)N1CCN(c2ccc(NC(=O)c3cc4ccccc4o3)cc2)CC1
    -20	-4	x	x	x	-5.2	2949
- CSc1ccc(C(=S)N2CCN(CCO)CC2)cc1
    -18	4	-2	14	3	3.9	10601
- C=C1CCN([C@H](C(=O)NCc2ccccc2)C(C)C)S(=O)(=O)c2ccccc21
    -3	x	-2	x	x	x	2829
- NNC(=O)COc1cccc(Oc2ccccc2)c1
    -22	3	-10	12	14	0.9	2497
- Cc1cc(C)c(C(=O)/C=C/c2cccs2)c(=O)[nH]1
    -1	6	21	10	13	1.8	4257
- O=C(c1ccco1)N1CCN(Cc2cn[nH]c2-c2cccc3ccccc23)CC1
    -21	9	-1	-6	-2	5.1	5961
- CCOc1ccc(N2C(=O)/C(=C/c3ccc(C)o3)N(C)C2=S)cc1
    -29	0	-10	2	-5	-0.2	8703
- CC(NC(=O)Nc1ccc(O)cc1)(C(F)(F)F)C(F)(F)F
    -14	10	2	14	10	-0.6	2495
- CCOc1ccc(-n2ccc(=O)c(C(=O)Nc3ccc(S(=O)(=O)N4CCOCC4)cc3)n2)cc1
    -6	9	11	1	3	6.2	4943
- CC(C)CCN1CCN(Cc2nc(-c3ccc(F)cc3)cs2)CC1CCO (configuration not stated)
    -6	5	-1	9	4	4.0	4239
- O=C(N1CCOCC1)N1CCN(CC(O)COc2ccc3ccccc3c2)CC1 (configuration not stated)
    -7	-7	-7	x	x	-0.4	3400
- Cc1noc(NS(=O)(=O)c2ccc(NC=CC(=O)c3ccccc3)cc2)c1C
    x	2	x	14	10	11	x
- O=C(CNC(=O)c1ccc(S(=O)(=O)N2CCCC2)cc1)NN=Cc1ccc(F)cc1
    x	-10	x	5	12	8.5	x
- Cc1cccc(NC(=S)NNC(=O)c2sccc2C)c1
    x	-5	-1	2	13	3.5	7350
- CC(=O)Nc1ccc(OC(F)(F)C(F)C(F)(F)F)c(NC(C)=O)c1 (configuration not stated)
    -2	3	0	-10	-2	2.7	15485
- CN(C)CCN1C(=O)C(=O)/C(=C(/O)c2ccc(S(=O)(=O)N3CCOCC3)cc2)C1c1ccccc1 (configuration not stated)
    -5	0	-14	3	0	0.5	10470
- CCOc1ccc(Cn2c3ccc(OC)cc3c3nc4ccccc4nc32)cc1OC
    -13	-4	-1	5	10	9.8	2471
- Cc1nnc(SCC(=O)NNC(=O)c2ccc(Cl)cc2)n1CC1CCCO1 (configuration not stated)
    -3	7	6	2	15	4.0	2861

# Structures listed so far that contain a Cl atom:
# Values run as follows: PrP 5UTR inh	Sa ugtP lethal	BJeLR lethal	Mtb hypoxia inh	Mtb hypoxia inh growth	Sa RN4220 lethal	Autofluor counter
- O=C(/C=C/c1ccco1)NCC(=O)NN=Cc1ccc(Cl)cc1
    x	-1	x	6	4	-0.2	x
- Cn1nc(C(F)(F)F)c(C=NOC(=O)c2ccccc2Cl)c1SCc1ccccc1Cl
    x	12	x	9	2	1.7	x
- O=C(NNC(=O)c1ccccc1O)c1ccc(Cl)c(S(=O)(=O)N2CCCCC2)c1
    0	20	-4	8	6	12	u
- COc1cc(CN2CCC(CCC(=O)NC3CC3)CC2)cc(Cl)c1OC
    -31	18	0	4	-1	3.0	3910
- Cc1cc(C(=O)CCl)c(C)n1-c1cccc(S(=O)(=O)N2CCOCC2)c1
    x	20	-16	22	18	28	x
- COc1cc(C2Nc3cc(Cl)c(S(N)(=O)=O)cc3S(=O)(=O)N2)ccc1OCc1ccccc1 (configuration not stated)
    -53	2	9	6	9	5.6	4227
- Cc1cc(C)nc(NC2=NCC(=O)N2c2ccc(Cl)cc2)n1
    -5	5	x	-3	-1	16	3050
- COc1cccc2cc(C(=O)C3=C(O)C(=O)N(CCN(C)C)C3c3ccc(Cl)cc3)oc12 (configuration not stated)
    -36	1	2	13	11	2.6	3918
- Cc1nnc(SCC(=O)NNC(=O)c2ccc(Cl)cc2)n1CC1CCCO1 (configuration not stated)
    -3	7	6	2	15	4.0	2861

# This is a random part of the collection, and some 4.1% of all compounds hit somewhere here.
